BJeLR viability: BJeLR cell viability loss; inhibition, % (concentration not given with the values); 300,000 tested, 0.17% active; BJeLR (HRASV12) viability, CellTiter-Glo ATP luminescence, 48 h; reference of the scale not given here; AID 1554;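 active = replicate mean above 50%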;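 also: 50 nL library stock added to about 25 µL; numbers are from one replicate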
Bead autofluor: compound fluorescence in toxin protease inhibitor counterscreen; compound autofluorescence counterscreen, microsphere flow cytometry; active compounds read high; fluorescence intensity (test concentration not listed); AID 624483; 360,000 tested, 3.1% active;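 active = at least 3 SD above the mean of all compounds, about 16000 in these data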;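 also: 100 nL of 1 mM stock went into each well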
PrP 5UTR inh: suppresses PrP 5' UTR mRNA reporter expression; cell-based PrP 5' UTR mRNA reporter, plate reader; inhibition, % (concentration not given with the values); 340,000 tested, 0.35% active; AID 488862;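 active = every replicate at 50% or more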;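 also: 0 = median of the neutral control wells; tested in H4 reporter cells; numbers are from one replicate; inactives centre near -14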
ugtP null kill: growth inhibition of S. aureus ugtP deletion strain | S. aureus RN4220 ugtP deletion, OD600 growth, 16 h; some inactives read as strong as hits | growth inhibition, % (no concentration beside the values) | 330,000 tested, 0.54% active | AID 1259309;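 active = z-score under -3 and OD600 up to 0.15 on both plates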;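 also: plate controls were untreated wells for no effect and antibiotic for full effect; wells of about 80 µL received 100 nL stock; the first replicate is given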
Mtb hypoxia inh: Mtb hypoxia fluorescent reporter inhibition; M. tuberculosis hypoxia-regulated fluorescent reporter, fluorescence; fluorescence inhibition, % (test concentration not listed); 300,000 tested, 0.1% active; AID 1159583;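 active = 35 to 45% if threefold the growth effect, above 45% if 1.5-fold the growth effect; inactive = the rest, general growth blockers included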;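 also: wells of about 50 µL received 100 nL stock; 0% = vehicle wells and 100% = reference inhibitor wells; whole bacteria with a GFP reporter of the hypoxia response; strong numbers were not always called active; many hits fall short of the cut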
Sa RN4220 lethal: kills Staphylococcus aureus RN4220 | AID 1259311 | S. aureus RN4220 growth, OD600, 16 h | 330,000 tested, 0.33% active | inhibition, % (no concentration beside the values);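 active = z-score of -3 or lower and OD600 up to 0.18 on both plates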;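 also: plate controls were untreated cells for no effect and reference antibiotic for full effect; stock transfer was 100 nL into about 80 µL; one replicate is shown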
Mtb hypoxia inh growth: also measured in Mtb hypoxia inh; calls as there; growth inhibition, %; measured here: M. tuberculosis growth (absorbance);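 0% = vehicle and 100% = reference antibiotic; read after six days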
* hit, by the source's call.

Screening Nc1nnc(SCC(=O)OCC(=O)Nc2ccccc2)s1 returned BJeLR viability 1.3, Bead autofluor 2507, PrP 5UTR inh -1.0, ugtP null kill 5.7, Mtb hypoxia inh -5.6, Sa RN4220 lethal 4.2 and Mtb hypoxia inh growth 0.0.
COc1ccc2sc(C)nc2c1NC(C)=O was read as BJeLR viability 0.8, Bead autofluor 6227, PrP 5UTR inh -5.8, ugtP null kill -3.5 and Sa RN4220 lethal -2.4.
CCOC(=O)c1ccc(NC(=S)NCCc2ccccc2F)cc1 was read as BJeLR viability 8.9, Bead autofluor 4513, PrP 5UTR inh -0.8, ugtP null kill 3.2, Mtb hypoxia inh -9.1, Sa RN4220 lethal -21.2 and Mtb hypoxia inh growth -10.0.
`O=C(c1cn(-c2ccccc2)nc1-c1ccccc1)N1CCOCC1` gave BJeLR viability 5.2, Bead autofluor 9334, PrP 5UTR inh -25.9, ugtP null kill -0.5, Mtb hypoxia inh 13.3, Sa RN4220 lethal 4.9 and Mtb hypoxia inh growth 2.6.
CCc1cccc(NC(=O)CSc2nc3c(c(=O)[nH]2)CCCC3)c1 was read as BJeLR viability -6.7, ugtP null kill 0.5, Mtb hypoxia inh 10.7, Sa RN4220 lethal 2.5 and Mtb hypoxia inh growth 2.0.
Screening Cc1noc(C)c1S(=O)(=O)N1CCCC(C(=O)NCCC2=CCCCC2)C1 (configuration not stated) returned BJeLR viability -1.7, Bead autofluor 5582, PrP 5UTR inh -3.3, ugtP null kill 3.2 and Sa RN4220 lethal 4.0.
Screening NC(=O)c1ccc2c(=O)c(O)c(-c3cc(Cl)c(N)c(Cl)c3)[nH]c2c1 returned BJeLR viability 0.8, Bead autofluor 3510 and PrP 5UTR inh -13.5.
CC(C)OCCCNC(=O)c1ccc(CN2CCc3ccccc3C2)cc1 was read as BJeLR viability 6.8, Bead autofluor 3623, PrP 5UTR inh -14.0, ugtP null kill 9.8, Mtb hypoxia inh 19.4, Sa RN4220 lethal 3.4 and Mtb hypoxia inh growth 13.3.
CC1CCc2c(C(=O)NCc3ccco3)csc2C1 (configuration not stated) was read as BJeLR viability -1.8, Bead autofluor 4800, PrP 5UTR inh -43.7, ugtP null kill 4.8 and Sa RN4220 lethal 4.0.
For C[C@H](CO)NC(=O)[C@@H]1C[C@H]1[C@@H](NP(=O)(c1ccccc1)c1ccccc1)c1ccccc1 the results were BJeLR viability -1.2, Bead autofluor 3758 and PrP 5UTR inh -11.1.
O=C(C1CC(=O)N(c2ccc(Br)cc2)C1)N1CCCC1 (configuration not stated) was read as BJeLR viability -0.6, Bead autofluor 5683, PrP 5UTR inh -6.8, ugtP null kill 4.2, Mtb hypoxia inh 6.1, Sa RN4220 lethal 2.4 and Mtb hypoxia inh growth -2.5.
For Cc1ccc(CCC(=O)Nc2ccc([N+](=O)[O-])cc2)o1 the results were BJeLR viability -9.0, PrP 5UTR inh 4.9, ugtP null kill -9.3, Mtb hypoxia inh -8.7, Sa RN4220 lethal -0.7 and Mtb hypoxia inh growth 3.0.
`CN(C)S(=O)(=O)c1ccc2c(c1)C(CC(=O)O)NC2=O` (configuration not stated) gave BJeLR viability -8.3, Bead autofluor 9252, PrP 5UTR inh -0.1, ugtP null kill 4.2, Mtb hypoxia inh -76.1, Sa RN4220 lethal -0.1 and Mtb hypoxia inh growth 24.6.
`NC(=O)c1ccc(N2CCN(c3ncc(C(F)(F)F)cc3Cl)CC2)cc1` gave BJeLR viability 4.2, Bead autofluor 4201, PrP 5UTR inh 46.3, ugtP null kill -1.2, Mtb hypoxia inh 13.4, Sa RN4220 lethal 3.5 and Mtb hypoxia inh growth 10.3.
`CCNC(=O)N(CC)C[C@H]1N[C@@](C)(C(=O)OC)[C@H]2C(=O)N(C)C(=O)[C@@H]12` gave Bead autofluor 3595, PrP 5UTR inh -3.7, ugtP null kill -0.1, Mtb hypoxia inh -12.6, Sa RN4220 lethal 0.9 and Mtb hypoxia inh growth -4.9.
`O=C(COC(=O)CCC1CCCC1)Nc1ccccc1OC(F)F` gave BJeLR viability 1.5, Bead autofluor 3236, PrP 5UTR inh -5.2, ugtP null kill 9.3, Mtb hypoxia inh 0.9, Sa RN4220 lethal 4.7 and Mtb hypoxia inh growth -2.8.
For Cc1cc(C)cc(-n2c(SCC(=O)NCc3ccco3)nc3ccccc3c2=O)c1 the results were Bead autofluor 2950, PrP 5UTR inh -19.0, ugtP null kill -1.9 and Sa RN4220 lethal -16.3.
COc1ccc(-c2nnc(Sc3nc4ccccc4o3)c3ccccc23)cc1 was read as BJeLR viability 1.5, Bead autofluor 8060, PrP 5UTR inh -26.0, ugtP null kill 28.5, Mtb hypoxia inh 4.1, Sa RN4220 lethal 8.0 and Mtb hypoxia inh growth 3.3.
Screening C(=NN1CCOCC1)c1cn(-c2ccccc2)nc1-c1ccccc1 returned ugtP null kill 6.9, Mtb hypoxia inh 6.0, Sa RN4220 lethal -0.7 and Mtb hypoxia inh growth -3.9.
For COc1ccc(N2CCN(C(=S)NC(C)c3ccccc3)CC2)cc1 (configuration not stated) the results were BJeLR viability 2.1, Bead autofluor 4555, PrP 5UTR inh -2.3, ugtP null kill 8.6, Mtb hypoxia inh 17.7, Sa RN4220 lethal 1.4 and Mtb hypoxia inh growth 12.5.
For COc1cc(OC)cc(C(=O)N2CCC(N3CCN(c4ccccc4OC)CC3)CC2)c1 the results were BJeLR viability -0.3, Bead autofluor 2331, PrP 5UTR inh -39.3, ugtP null kill 8.8, Mtb hypoxia inh -0.2, Sa RN4220 lethal -0.5 and Mtb hypoxia inh growth -0.7.
Screening CC(C)(C)NC(=O)COC(=O)/C=C/c1ccc(F)cc1 returned BJeLR viability 13.8, Bead autofluor 2202, PrP 5UTR inh -11.7, ugtP null kill -1.0, Mtb hypoxia inh -3.2, Sa RN4220 lethal 12.3 and Mtb hypoxia inh growth 1.5.
COc1cccc(NC(=O)CSc2nc3n[nH]c(C)c3c(=N)n2-c2cccc(OC)c2)c1 was read as BJeLR viability -5.1, Bead autofluor 2530, PrP 5UTR inh -9.5, ugtP null kill -8.1 and Sa RN4220 lethal 2.4.
Screening CCN1C(=O)C2C(c3ccc(-c4ccc(Cl)c(Cl)c4)c(OC)c3)N[C@@](Cc3ccccc3)(C(=O)OC)C2C1=O (some centres not stated) returned ugtP null kill -1.4, Mtb hypoxia inh 19.1, Sa RN4220 lethal -2.8 and Mtb hypoxia inh growth 8.6.
CCn1c(-c2ccncc2)n[nH]c1=S was read as BJeLR viability 12.7, Bead autofluor 2151, PrP 5UTR inh -38.6, ugtP null kill 2.2, Mtb hypoxia inh 0.7, Sa RN4220 lethal 1.0 and Mtb hypoxia inh growth 1.3.
`CCn1c(SCC(=O)Nc2cc(F)ccc2C)nnc1-c1ccccc1O` gave BJeLR viability 2.4, Bead autofluor 4720, PrP 5UTR inh -4.8, ugtP null kill 17.5 and Sa RN4220 lethal -7.9.
CC(C)(C)c1cc(Br)c(O)c(N=Nc2ccc(S(=O)(=O)N3CCOCC3)cc2)c1 was read as BJeLR viability 1.0, Bead autofluor 4619, PrP 5UTR inh -24.0, ugtP null kill 4.3, Mtb hypoxia inh -3.0, Sa RN4220 lethal 4.4 and Mtb hypoxia inh growth 16.8.
O=C(C[n+]1ccccc1)NN=Cc1ccco1 was read as ugtP null kill 2.4, Mtb hypoxia inh 3.1, Sa RN4220 lethal 5.5 and Mtb hypoxia inh growth 3.1.
Screening CC(=O)/C=C/c1ccccc1O returned BJeLR viability -3.6, Bead autofluor 2611, PrP 5UTR inh -11.4, ugtP null kill -5.6, Mtb hypoxia inh -7.7, Sa RN4220 lethal 1.0 and Mtb hypoxia inh growth -3.8.
`O=C(COC(=O)COc1ccc(Cl)cc1)NCCNC(=O)COC(=O)COc1ccc(Cl)cc1` gave BJeLR viability -12.3, Bead autofluor 5437, PrP 5UTR inh -24.0, ugtP null kill 3.7, Mtb hypoxia inh 10.6, Sa RN4220 lethal 2.4 and Mtb hypoxia inh growth 1.0.
Screening C=CCNC(=O)C1CC(c2cccc(OC)c2)=NO1 (configuration not stated) returned BJeLR viability 0.5, Bead autofluor 10174, PrP 5UTR inh -22.6, ugtP null kill 5.0, Mtb hypoxia inh 4.1, Sa RN4220 lethal 1.9 and Mtb hypoxia inh growth -3.2.
COc1ccc(N2CSC3=C(C#N)C(c4ccc(OC)c(OC)c4)CC(=O)N3C2)c(OC)c1 (configuration not stated) was read as BJeLR viability -1.0, Bead autofluor 5899, PrP 5UTR inh -8.9, ugtP null kill -0.3, Mtb hypoxia inh -9.7, Sa RN4220 lethal 9.5 and Mtb hypoxia inh growth -2.5.
Screening COc1cc(NC(=O)CSc2c3c(nc4ccccc24)CCC3)cc(OC)c1OC returned BJeLR viability -3.0, Bead autofluor 2116, PrP 5UTR inh -12.7, ugtP null kill 7.3, Mtb hypoxia inh 11.0, Sa RN4220 lethal 3.0 and Mtb hypoxia inh growth 15.6.
For CC(=O)N1c2ccc(S(=O)(=O)NCCC(=O)Nc3ccc(C)c(F)c3)cc2CC1C (configuration not stated) the results were BJeLR viability 1.6, Bead autofluor 6483, PrP 5UTR inh -4.2, ugtP null kill 1.2, Mtb hypoxia inh -1.5, Sa RN4220 lethal 1.1 and Mtb hypoxia inh growth 6.7.
For O=C(c1cccnc1)N1CCC(c2nc3ccccc3[nH]2)CC1 the results were BJeLR viability -6.5, ugtP null kill -3.2, Mtb hypoxia inh 9.8, Sa RN4220 lethal 7.3 and Mtb hypoxia inh growth 4.8.
`COc1ccc(C(=O)CC2C(=O)N(C)C(=O)N(C)C2=O)cc1` gave Bead autofluor 3493, PrP 5UTR inh -0.5, ugtP null kill 4.9 and Sa RN4220 lethal 3.3.
`COC(C[C@H](O)C[C@H](O)COCc1ccccc1)OC` gave BJeLR viability 0.0, Bead autofluor 4018 and PrP 5UTR inh -7.1.
`Cn1c(=O)n(C)c2cc(S(=O)(=O)Nc3ccccc3O)ccc21` gave BJeLR viability -10.8, Bead autofluor 6490, PrP 5UTR inh -19.5, ugtP null kill 0.5, Mtb hypoxia inh 2.9, Sa RN4220 lethal 3.6 and Mtb hypoxia inh growth -2.6.
`COc1ccccc1NC(=O)C(C)NS(=O)(=O)c1ccccc1` (configuration not stated) gave BJeLR viability -2.9, Bead autofluor 3385, PrP 5UTR inh -9.1, ugtP null kill -1.1, Mtb hypoxia inh 10.0, Sa RN4220 lethal 4.7 and Mtb hypoxia inh growth 6.9.
`CSc1nc2c(c(=O)[nH]1)C(c1cccc(Br)c1)CC(=O)N2` (configuration not stated) gave BJeLR viability 0.4, Bead autofluor 3895, PrP 5UTR inh -29.1, ugtP null kill 5.0, Mtb hypoxia inh 2.4, Sa RN4220 lethal 3.7 and Mtb hypoxia inh growth 1.8.
Screening CCc1cccc(NC(=O)Nc2cccs2)c1 returned BJeLR viability 17.4, Bead autofluor 3050, PrP 5UTR inh -77.1, ugtP null kill -5.0, Mtb hypoxia inh 3.3, Sa RN4220 lethal 8.2 and Mtb hypoxia inh growth 2.3.
For COc1ccc(NC(=O)C/C(C)=N/NC(=O)CCc2ccccc2)c(OC)c1 the results were BJeLR viability 6.7, Bead autofluor 3177 and PrP 5UTR inh -17.5.
`CC(Oc1ccc(Br)cc1)C(=O)O/N=C(\N)c1ccncc1` (configuration not stated) gave BJeLR viability 2.4, Bead autofluor 6213, PrP 5UTR inh 1.5, ugtP null kill 0.1, Mtb hypoxia inh -15.3, Sa RN4220 lethal 2.8 and Mtb hypoxia inh growth 1.9.
Screening COc1cc(C(=O)NCc2cccs2)ccc1OCc1c(C)noc1C returned Bead autofluor 3697, PrP 5UTR inh -15.2, ugtP null kill 2.2, Mtb hypoxia inh -0.6, Sa RN4220 lethal -0.7 and Mtb hypoxia inh growth -2.2.
`CC(=O)c1cccc(OCC(=O)N(Cc2ccco2)c2c(N)n(Cc3ccccc3)c(=O)[nH]c2=O)c1` gave Bead autofluor 3543, PrP 5UTR inh -20.4, ugtP null kill 3.1, Mtb hypoxia inh 16.9, Sa RN4220 lethal 3.4 and Mtb hypoxia inh growth 6.6.
`CCOc1cc(/C=N/NC(=O)Cn2nc([N+](=O)[O-])cc2C)ccc1OCc1ccc(F)cc1` gave BJeLR viability 2.5, Bead autofluor 3566 and PrP 5UTR inh -7.9.
